A1 inh: blocks A1 activity. MEF A1-2A-BIM cells, caspase-Glo luminescence, 3 h; percent of clofoctol signal, DMSO as zero. caspase activation, % (concentration not given with the values). 21,000 compounds, 0.51% hits. AID 2241;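 active = most replicate scores above 10, or exactly half above 10 with mean activity above 10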;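 note: effector caspase 3 and 7 activity cleaving a DEVD luciferin substrate; 50 nL library stock added to about 30 µL; numbers are from one replicate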
BJeLR viability: compounds reducing viability of BJeLR cells; BJeLR fibroblasts viability, CellTiterGlo ATP luminescence, 48 h; HRASV12, hTERT and SV40 LT/ST transformed; AID 2275; 30,000 compounds, 0.64% hits; viability loss activity score, % (no concentration beside the values); in the data active = viability loss activity score above about 50%; about a fifth of its hits are not listed in these tables;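 note: higher score means fewer live cells and less ATP luminescence; stock transfer was 50 or 100 nL into about 30 µL; 0% = vehicle wells and 100% = a reference killing control; one replicate is shown; the record names a cut of 85%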
* = called active by the depositor; . = not tested or not shown. Only part of the results is shown; the hit share may differ from the screen's.

SMILES	A1 inh	BJeLR viability
C[C@@H]1CN([C@@H](C)CO)C(=O)c2cc(NC(=O)CCN3CCOCC3)ccc2O[C@H]1CN(C)S(=O)(=O)c1ccc(F)cc1	0.0	-4.0
O=C1CCC(c2ccccc2)=NN1Cc1c(F)cccc1Cl	-0.9	5.7
C[C@H]1CN([C@@H](C)CO)C(=O)c2cc(NC(=O)CCN3CCOCC3)ccc2O[C@H]1CN(C)Cc1ccncc1	0.8	6.8
COc1ccc(NC(=O)N(C)C[C@H]2Oc3ccc(NC(=O)NC(C)C)cc3C(=O)N([C@H](C)CO)C[C@H]2C)cc1	-0.3	6.3
Cc1cc(C(=O)Nc2cccc3c2O[C@@H](CN(C)C(=O)Nc2ccc4c(c2)OCO4)[C@@H](C)CN([C@@H](C)CO)C3=O)n(C)n1	.	2.7
Cc1ccc(S(=O)(=O)/N=S(\C)c2ccccc2)cc1 (centres undefined)	-0.1	2.1
CCC(NS(=O)(=O)c1c(C)[nH]c(=O)[nH]c1=O)C12CC3CC(CC(C3)C1)C2 (centres undefined)	0.0	2.8
O=C(CC(O)(CC(=O)OCc1ccc(O[C@@H]2O[C@H](CO)[C@@H](O)[C@H](O)[C@H]2O)cc1)C(=O)OCc1ccc(O[C@@H]2O[C@H](CO)[C@@H](O)[C@H](O)[C@H]2O)cc1)OCc1ccc(O[C@@H]2O[C@H](CO)[C@@H](O)[C@H](O)[C@H]2O)cc1	0.3	-0.9
CCOC(=O)N1CCC(NC(=O)C2CCCN(C(=O)N3CCOc4ccccc43)C2)CC1 (centres undefined)	4.2	-0.7
NS(=O)(=O)c1ccc(N=Cc2c(O)[nH]c3ccccc23)cc1	-1.6	-8.7
COc1ccc(S(=O)(=O)N(C)C[C@@H]2Oc3c(NC(=O)c4ccc(-c5nccs5)cc4)cccc3C(=O)N([C@H](C)CO)C[C@H]2C)cc1	.	-1.6
Cn1nnc2c(sc3nc(N4CCOCC4)c4c(c32)CCCC4)c1=O	.	-3.0
c1ccc2c(c1)nc(N1CCCC1)c1nncn12	1.0	-1.7
C[C@H](CO)N1C[C@H](C)[C@H](CN(C)S(=O)(=O)c2ccccc2)Oc2c(NC(=O)Nc3cccc4ccccc34)cccc2C1=O	.	0.0
Cc1nc(COc2ccccc2Cl)sc1C(=O)/C=C/N(C)C	-0.2	-4.3
Cc1ccc(S(=O)(=O)N(C)C[C@@H]2Oc3ccc(NC(=O)Nc4c(C)noc4C)cc3C(=O)N([C@@H](C)CO)C[C@H]2C)cc1	0.8	-2.0
CCCCc1ccc(NCc2nc(-c3ccc(C)cc3)no2)cc1	.	1.3
Cc1ccc(S(=O)(=O)N2CCC(=O)c3ccccc32)cc1	0.0	1.0
C[C@H]1CN([C@@H](C)CO)C(=O)c2cc(NS(C)(=O)=O)ccc2O[C@@H]1CN(C)Cc1ccc2c(c1)OCO2	0.2	-5.7
O=C(Nc1cccc2ccccc12)OCCn1ncc2ccccc2c1=O	0.7	-2.3

Taken from the results shown for reference:
SMILES	A1 inh	BJeLR viability
C[C@@H]1CN([C@@H](C)CO)C(=O)c2cc(NC(=O)CCN3CCOCC3)ccc2O[C@H]1CN(C)S(=O)(=O)c1ccc(F)cc1	0.0	-4.0
O=C1CCC(c2ccccc2)=NN1Cc1c(F)cccc1Cl	-0.9	5.7
C[C@H]1CN([C@@H](C)CO)C(=O)c2cc(NC(=O)CCN3CCOCC3)ccc2O[C@H]1CN(C)Cc1ccncc1	0.8	6.8

Molecules shown so far with two or more sulfur atoms, in the order listed:
SMILES	A1 inh	BJeLR viability
Cc1ccc(S(=O)(=O)/N=S(\C)c2ccccc2)cc1 (centres undefined)	-0.1	2.1
COc1ccc(S(=O)(=O)N(C)C[C@@H]2Oc3c(NC(=O)c4ccc(-c5nccs5)cc4)cccc3C(=O)N([C@H](C)CO)C[C@H]2C)cc1	.	-1.6

Other records:
SMILES	A1 inh	BJeLR viability
C=C1C(=O)O[C@@H]2[C@H]3O[C@]3(C)CCC=C(C)CC[C@@H]12	-0.1	17.1
C[C@H](CO)N1C[C@H](C)[C@H](CN(C)Cc2ccc(-c3ccccc3)cc2)Oc2ccc(NC(=O)c3ccncc3)cc2C1=O	0.1	-1.0
CCCCC1CCC(C(=O)Oc2ccc(OCC)cc2)CC1 (centres undefined)	-0.1	-0.2
COc1ccc(S(=O)(=O)N(C)C[C@H]2Oc3ccc(NS(C)(=O)=O)cc3C(=O)N([C@@H](C)CO)C[C@@H]2C)cc1	-0.7	-0.3
COc1cc2c(cc1OC)C(COc1cccc(C(F)(F)F)c1)N(C(=O)c1ccco1)CC2 (centres undefined)	-0.1	-6.1
COC(=O)CNc1c(F)c(F)nc(F)c1F	.	-3.0
O=C(O)c1ccc(CNCc2ccccc2)s1	-0.2	1.7
Cn1cc(/C(Cc2ccccc2)=N\O)c2ccccc21	2.4	16.3
S=c1ccc(-c2ccc(Cl)cc2)nn1-c1ccccc1	.	0.1
Cc1ccc(S(=O)(=O)N(C)C[C@H]2Oc3ccc(NS(=O)(=O)c4cccs4)cc3C(=O)N([C@H](C)CO)C[C@H]2C)cc1	0.1	6.2
COc1cccc(C(=O)OCC(=O)c2ccccc2)c1OC	-2.3	-5.3
C[C@@H]1CN([C@H](C)CO)C(=O)c2cc(NC(=O)Cn3cnnn3)ccc2O[C@@H]1CN(C)S(=O)(=O)c1ccc(Cl)cc1	0.3	-1.3
CCOC(=O)/C=C(\C)Sc1cc(=O)oc2ccccc12	.	4.7
CCCCCCCCCC(=O)N[C@H](CN1CCOCC1)[C@H](O)c1ccccc1	0.1	-1.5
C[C@@H]1CN([C@H](C)CO)C(=O)c2cccc(NC(=O)Nc3ccc(C(F)(F)F)cc3)c2O[C@H]1CN(C)Cc1ccc(Oc2ccccc2)cc1	.	3.4
CC(C)N(C(=O)Cn1ncc2c(=O)oc3ccccc3c21)C1CCCCC1	0.2	-0.4
COc1ccc(NC(=O)OC(C)C)cc1	.	15.9
CNC(=O)Nc1ccc2snnc2c1	-0.5	2.0
COc1ccc(S(=O)(=O)N(C)C[C@@H]2Oc3ccc(NC(=O)Cn4cnnn4)cc3C(=O)N([C@@H](C)CO)C[C@H]2C)cc1	0.7	0.7
CC(=NC(=S)c1ccc(Cl)cc1)N(C)C	0.8	0.7
Cc1noc(C)c1NC(=O)N(C)C[C@@H]1Oc2c(NS(C)(=O)=O)cccc2C(=O)N([C@H](C)CO)C[C@@H]1C	.	0.7
Cc1ccc(S(=O)(=O)Nc2cccc3c2O[C@@H](CN(C)S(=O)(=O)c2ccc(C)cc2)[C@H](C)CN([C@@H](C)CO)C3=O)cc1	.	1.5
Cc1noc(C)c1NC(=O)Nc1cccc2c1O[C@H](CN(C)C(=O)NC(C)C)[C@@H](C)CN([C@H](C)CO)C2=O	.	2.6
CN(C(=O)c1coc(=O)c2ccccc12)c1ccc(F)cc1	.	-2.3
COc1ccc(OC)c(S(=O)(=O)NC2CCS(=O)(=O)C2)c1 (centres undefined)	-0.2	-0.4
CCOC(=O)COc1nc(-c2ccccc2)cc(-c2ccccc2)c1C#N	-0.6	-6.2
COc1cc(Br)cc(CNc2cc(C)on2)c1O	-0.2	-2.4
CC(C)=CCC1Cc2c(cc(O)c(C(=O)C(C)C)c2O)OC1(C)C (centres undefined)	0.6	5.0
COc1ccc(CCC(=O)c2ccc(OC)cc2O)cc1	-1.6	0.6
COc1ccc(S(=O)(=O)N(C)C[C@@H]2Oc3ccc(NC(=O)Nc4cccc5ccccc45)cc3C(=O)N([C@@H](C)CO)C[C@H]2C)cc1	0.9	-2.1
O=c1c2ccccc2nc(-c2ccccc2)n1Nc1ccc(F)cc1F	0.5	0.9
Cc1ccc(S(=O)(=O)N(C)C[C@H]2Oc3ccc(NC(=O)NC4CCCCC4)cc3C(=O)N([C@H](C)CO)C[C@H]2C)cc1	0.1	3.3
Cc1ccc(S(=O)(=O)Nc2cccc3c2O[C@@H](CN(C)Cc2ccc4c(c2)OCO4)[C@H](C)CN([C@@H](C)CO)C3=O)cc1	.	-1.3
O=c1cc(-c2ccc(O)c(O)c2)oc2cc(O)cc(O)c12	-3.1	-4.8
COc1ccc(-c2csc(Nc3ccc(S(=O)(=O)Nc4cc(C)on4)cc3)n2)cc1C	0.7	4.6
O=C(Nc1ccccc1)N1CCCN(c2c(Cl)cncc2Cl)CC1	.	2.4
CCOc1ccc(NC(=O)Cn2c3c(c(-c4ccccc4)cc2=O)CCCC3)cc1	0.3	3.0
C[C@@H]1CN([C@@H](C)CO)C(=O)c2cccc(NC(=O)Nc3ccc(F)cc3)c2O[C@H]1CN(C)C(=O)Nc1ccccc1	.	-4.9
CCCN(CCC)S(=O)(=O)c1ccc2c(c1)CCCN2C(C)=O	.	8.2
CC(=O)Nc1ccc(OCCOc2ccc(/C=C3/C(=N)N4C=CSC4=NC3=O)cc2)cc1	.	2.6
C[C@H](CO)N1C[C@H](C)[C@@H](CN(C)Cc2ccc3c(c2)OCO3)Oc2c(NS(=O)(=O)c3ccccc3)cccc2C1=O	.	-1.2
CN(C)/C=N/C(=S)N1CCOCC1	0.2	0.7
Cc1cc(=O)oc2cc(OC3OC(CO)C(O)C(O)C3O)ccc12 (centres undefined)	0.7	0.1
CC(=O)OC(c1nc2ccccc2c(=O)n1C1CC2(OC1=O)c1ccccc1N1C(=O)C(C)(C)N(O)C12)C(C)C (centres undefined)	-0.7	3.4
Cc1ccc(Sc2c(C)c3cc4c(cc3[nH]c2=O)OCO4)cc1	-0.5	5.7
CC1CCc2nc(NC(=O)c3ccc(Cc4ccccc4)cc3)sc2C1 (centres undefined)	-0.5	2.5
COc1ccc(/C=C2\SC(=S)N(CCCC(=O)O)C2=O)cc1OC	-1.3	-1.0
Cc1ccc(C(=O)NC(C)C)cc1	-0.3	2.5
COc1ccc([C@@H]2CC(=O)c3c(O)cc(O[C@@H]4O[C@H](CO[C@H]5O[C@@H](C)[C@H](O)[C@@H](O)[C@H]5O)[C@@H](O)[C@H](O)[C@H]4O)cc3O2)cc1O	-0.6	-7.1
C[C@@H]1CN([C@H](C)CO)C(=O)c2cc(NC(=O)Nc3ccc(F)cc3)ccc2O[C@@H]1CN(C)Cc1ccc2c(c1)OCO2	-0.4	-0.1
CCc1ccc(Oc2c(C(F)(F)F)oc3c(CN(C)C)c(O)ccc3c2=O)cc1	0.1	0.1
C[C@H](CO)N1C[C@H](C)[C@@H](CN(C)Cc2ccc3c(c2)OCO3)Oc2c(NC(=O)Nc3ccc(F)cc3)cccc2C1=O	.	6.4
COc1cc(O)c2c(c1)C1=C[C@H](O)[C@@H](O)C[C@]1(C)OC2=O	-0.3	20.7
C[C@@H]1CN([C@@H](C)CO)C(=O)c2cc(NC(=O)Nc3ccccc3)ccc2O[C@H]1CN(C)S(=O)(=O)c1ccc(F)cc1	-0.2	1.7
CC(C)c1ccc(S(=O)(=O)NCCOC23CC4CC(CC(C4)C2)C3)cc1	0.2	0.6
CC(C)NC(=O)N(C)C[C@@H]1Oc2ccc(NC(=O)Nc3ccc4c(c3)OCO4)cc2C(=O)N([C@@H](C)CO)C[C@@H]1C	-0.5	-1.1
CN(C)CCNC(=O)c1ccc2c(=O)n(Cc3ccc4c(c3)OCO4)c(=S)[nH]c2c1	-0.2	-6.5
Cc1ccc(NC(=O)Nc2nnc(N3C(C)CCCC3C)s2)cc1C (centres undefined)	0.0	4.3
Cc1ccc(NC(=O)CSc2nc3ccsc3c(=O)n2Cc2ccccc2F)cc1Cl	-0.2	0.1
CC1(C)S[C@@H]2[C@H](NC(=O)C3(N)CCCCC3)C(=O)N2[C@H]1C(=O)O	-0.3	-4.2

A draw from above in order of SMILES length, high to low:
SMILES	A1 inh	BJeLR viability
CC1(C)S[C@@H]2[C@H](NC(=O)C3(N)CCCCC3)C(=O)N2[C@H]1C(=O)O	-0.3	-4.2
Cc1ccc(NC(=O)CSc2nc3ccsc3c(=O)n2Cc2ccccc2F)cc1Cl	-0.2	0.1
COc1ccc(/C=C2\SC(=S)N(CCCC(=O)O)C2=O)cc1OC	-1.3	-1.0

More results
SMILES	A1 inh	BJeLR viability
CC(C)c1cccc2c1OC(C(C)C)C(=S)N2CC(=O)O (centres undefined)	0.0	1.8
COc1ccc(-c2nc(CSCC(=O)N(C)Cc3ccccc3)c(C)o2)cc1OC	.	-2.9
CNC[C@@H]1Oc2c(NC(=O)C3CCOCC3)cccc2C(=O)N([C@H](C)CO)C[C@@H]1C	.	0.7
CC1=C(CC(=O)O)c2cc(F)ccc2/C1=C\c1ccc(S(C)=O)cc1 (centres undefined)	-0.8	0.5
CCOC(=O)c1c(C)c(C(=O)Nc2ccc(C(C)C)cc2)c(C)n1C	1.2	26.2
C[C@H]1CN([C@@H](C)CO)C(=O)c2cccc(NC(=O)C3CCOCC3)c2O[C@@H]1CN(C)C(=O)Nc1ccccc1	.	-9.2
C[C@H]1CN([C@@H](C)CO)C(=O)c2cccc(NC(=O)NC3CCCCC3)c2O[C@H]1CN(C)S(=O)(=O)c1ccc(Cl)cc1	.	-3.9
COc1cc(OC)c(NC(=O)c2c(C)nn(-c3ccccc3)c2-n2cccc2)cc1Cl	-1.7	7.1
CCN(CC)c1ccc2c(c1)oc(=O)c1c(Cl)cc(=O)oc12	7.1	35.1
Cc1noc(C)c1NC(=O)Nc1cccc2c1O[C@@H](CN(C)Cc1ccc(Cl)c(Cl)c1)[C@H](C)CN([C@H](C)CO)C2=O	.	-4.6
C[C@@H]1CN([C@@H](C)CO)C(=O)c2cccc(NC(=O)c3ccncc3)c2O[C@@H]1CN(C)Cc1ccc(C(=O)O)cc1	.	-3.4
CSc1sc(-c2nc(C(C)(C)C)cs2)c2c1C(=O)CCC2	0.0	1.5
CC(C)NC(=O)N(C)C[C@@H]1Oc2ccc(NC(=O)Cc3cn(C)c4ccccc34)cc2C(=O)N([C@H](C)CO)C[C@@H]1C	0.3	0.4

Source: PubChem BioAssay
